# Source: PubChem BioAssay
# 2A Renilla: FMDV 2A StopGo reporter, Renilla signal | HEK cells with a luciferase reporter of 2A StopGo recoding | Potency, µM (highest dose often 57.5 µM), inactives show top-dose signal change, negative = less light | hit rate 0.32% among 120,000; active means well fitted falling curve with a large enough effect; inconclusive means small, poorly fitted or top-dose-only effect; inactive means no such curve, though single readings can be large or run the other way; note: nearly all actives have a fitted effect of over 55% in size; overnight with compound
# 2A firefly: lowers the firefly signal of an FMDV 2A StopGo reporter; HEK cells with a luciferase reporter of 2A StopGo recoding; Potency, µM (doses to about 57.5 µM), for inactives: at the highest dose signal change, negative = less light; hit rate 0.23% among 120,000; AID 1745856; active = well fitted falling curve with a large enough effect; inconclusive = small, poorly fitted or top-dose-only effect; inactive = no such curve, though single readings can be large or run the other way; note: nearly all actives have a fitted effect of over 60% in size; overnight with compound
# The depositor's hits bear a star; ? = inconclusive; [ ] = another dose, or the depositor's remark. % is set by controls: 0 for no effect and ±100 for the full control effect; potency is the fitted concentration of half-maximal effect.
SMILES,2A Renilla,2A firefly
C=CCC1(CC=C)CCCN1,10%,3%
CCN(CC)CCNC(=O)c1c2c(nc3ccccc13)C(=O)N(C1CCCCC1)C2,-2%,-19%
Cc1ccc(C)c(SCC(=O)Cc2ccccc2F)c1,30%[activator],26%
COc1ccc(NC(=O)Cn2nc(-c3cc(C)ccc3C)c3c(c2=O)CCCC3)cc1,-5%,8%
Cc1nc(NCc2ccccc2)sc1C(=O)N1CCC(C(N)=O)CC1,1%,12%
COc1ccc(OCC(=O)Nc2nnc(S(=O)(=O)N3CCCCCC3)s2)cc1,-15%,-14%
O=C(/C=C/c1ccc(N(c2ccccc2)c2ccccc2)cc1)c1cccc(C(F)(F)F)c1,16%[1.06 µM],0%
Cc1ccc(CNC(=O)Cc2c(C)c3cc4c(C)coc4cc3oc2=O)cc1,2%,-7%
Cc1cc(C)c(/C=N/NC(=O)c2ccccc2)c(C)c1,16%,196%[activator]
CC(=O)c1ccc(NC(=O)C2CCC(CNS(=O)(=O)c3cccs3)CC2)cc1 (stereo not given),1%,1%
Cc1cccc(-c2noc(-c3cccc(F)c3)n2)c1,6%,0%
COc1ccc(-c2[nH]nc3c2C(c2cccc(OC)c2OC)CC(=O)O3)cc1 (stereo not given),-9%,-9%

# Brought forward from above: six entries; new compounds follow.
SMILES,2A Renilla,2A firefly
O=C(/C=C/c1ccc(N(c2ccccc2)c2ccccc2)cc1)c1cccc(C(F)(F)F)c1,16%[1.06 µM],0%
Cc1ccc(CNC(=O)Cc2c(C)c3cc4c(C)coc4cc3oc2=O)cc1,2%,-7%
Cc1cc(C)c(/C=N/NC(=O)c2ccccc2)c(C)c1,16%,196%[activator]
CC(=O)c1ccc(NC(=O)C2CCC(CNS(=O)(=O)c3cccs3)CC2)cc1 (stereo not given),1%,1%
Cc1cccc(-c2noc(-c3cccc(F)c3)n2)c1,6%,0%
COc1ccc(-c2[nH]nc3c2C(c2cccc(OC)c2OC)CC(=O)O3)cc1 (stereo not given),-9%,-9%
COc1ccc(Cl)cc1NC(=O)CSc1nc2c(c(=O)n1C)SCC2,23%,23%
O=C1c2ccccc2NC(c2csc(-c3cccc(Br)c3)n2)N1C1CC1 (stereo not given),12%,2%
Cc1ccccc1NC(=O)N1CCc2c(sc3c2CCCC3)C1c1ccccc1 (stereo not given),-16%,-4%
COc1cc(OC)c(/C=N/O)cc1Br,20%,10%
COc1ccc(C(=O)c2cn(Cc3cccc(C)c3)c3cc4c(cc3c2=O)OCO4)cc1,125%[activator],-3%
COc1ccc(-c2nc(CSc3nncn4c3cc3occc34)c(C)o2)cc1,5%,32%[activator]
COc1ccc(-c2coc3cc(OCCN4CCN(CCO)CC4)ccc3c2=O)cc1,-18%,109%[activator]
Cc1ccc(-c2ccc(=O)n(Cc3noc(C(=O)NCc4ccco4)n3)n2)cc1C,85%[activator],6%
CCCCOc1ccc(Cn2c(=O)oc3ccc(C)cc32)cc1OC,-6%,14%
COc1ccc(NC(=O)C2=CC(c3ccccc3OC)=NS(=O)(=O)N2C)cc1OC,44%[activator],8%
CCCCCCn1c(NCc2ccc(C)cc2)nc2c1c(=O)[nH]c(=O)n2C,-10%,-4%
CC(=O)Nc1cc(F)ccc1-c1csc(NC(=O)CCc2ccco2)n1,-6%,1%
CC(NS(=O)(=O)c1ccc(Cl)s1)c1cc2ccccc2o1 (stereo not given),73%[activator],35%[activator]
CC(C)(C)CCNC(=O)c1cc(C2CC2)nc2ccccc12,-5%,-18%
Cc1ccc(-n2nc(CO)c(C(=O)NC(C)CCCc3ccccc3)n2)cc1C (stereo not given),-19%,-8%
Cn1c(=O)c2c(nc(N3CCCCC3)n2Cc2ccccc2Br)n(C)c1=O,-4%,11%
COCc1nn2cc(-c3ccc(C)cc3)nc2s1,?,-23%
NC(=O)C(=O)N/N=C/c1ccc([N+](=O)[O-])o1,-18%,-12%
O=C(NC1CCCCCC1)c1cc(-c2ccccn2)nc2c(Cl)cccc12,3%,0%
Cc1ccc(C(=O)CSc2nc3c([nH]2)c(=O)n(C)c(=O)n3C)cc1,-3%,6%
Oc1c(C(c2ccc(Cl)cc2)N2CCOCC2)sc2nc(-c3ccco3)nn12 (stereo not given),3%,-3%
COc1cc(NC(=O)CCCc2nnc3n(C)c(=O)c4sccc4n23)cc(OC)c1OC,6%,-17%
CCOC(=O)c1c(S(=O)(=O)NCC(=O)Nc2ccc(F)cc2C)c(C)n(C)c1C,58%[activator],-4%
COc1ccc(-c2cc(C)no2)cc1S(=O)(=O)CCC(=O)Nc1ccc(C)c(C)c1,9%,-14%

# Retrieved by structure from the list above:
SMILES,2A Renilla,2A firefly
Cn1c(=O)c2c(nc(N3CCCCC3)n2Cc2ccccc2Br)n(C)c1=O,-4%,11%
NC(=O)C(=O)N/N=C/c1ccc([N+](=O)[O-])o1,-18%,-12%
COc1ccc(-c2cc(C)no2)cc1S(=O)(=O)CCC(=O)Nc1ccc(C)c(C)c1,9%,-14%
CC(NS(=O)(=O)c1ccc(Cl)s1)c1cc2ccccc2o1 (stereo not given),73%[activator],35%[activator]

# A draw from above in order of count of non-hydrogen atoms, descending.
SMILES,2A Renilla,2A firefly
CCOC(=O)c1c(S(=O)(=O)NCC(=O)Nc2ccc(F)cc2C)c(C)n(C)c1C,58%[activator],-4%
Cn1c(=O)c2c(nc(N3CCCCC3)n2Cc2ccccc2Br)n(C)c1=O,-4%,11%
CC(NS(=O)(=O)c1ccc(Cl)s1)c1cc2ccccc2o1 (stereo not given),73%[activator],35%[activator]

# (listing goes on)
SMILES,2A Renilla,2A firefly
CCCCC(=O)Nc1ccc2c(c1)nc1n2CCSC1,9%,164%[activator]
CCCC(C(=O)NC1CCCCC1)(c1ccccc1)c1ccccc1,6%,37%[activator]
CCOC(=O)c1ccc(NC(=O)c2nn(C)c3c2COc2ccccc2-3)cc1,-4%,5%
CC(CN1CCOCC1)NS(=O)(=O)c1cc(F)cc(F)c1 (stereo not given),-14%,-5%
Cc1ccc(C(=O)Oc2cccc3c(OC(=O)c4cccc(C)c4)cccc23)cc1,7%,8%
COc1cccc(N2CCN(c3ncnc4c3c(-c3ccccc3)cn4-c3ccc(C)cc3)CC2)c1,-4%,-14%
COc1cc(NC(=O)CCc2c(C)nn(-c3ccc4nncn4n3)c2C)cc(OC)c1OC,-17%,-14%
O=C(CCc1ncc(-c2ccccc2F)o1)N1CCSCC1,0%,0%
Cc1cc(O)c2c(CN3CCN(C(c4ccccc4)c4ccccc4)CC3)cc(=O)oc2c1,-13%,-10%
CCN(CC)S(=O)(=O)c1ccc2[nH]c(=O)cc(C(=O)NC(C3CC3)C3CC3)c2c1,0%,0%
Cc1c2cnn(CC(=O)NCc3ccccc3)c(=O)c2c(C)n1Cc1ccccc1,9%,0%
O=C(NCc1ccccc1)c1ccc(S(=O)(=O)N2CCc3ccccc3C2)cc1,7%,-11%
Cc1ccc(CN(Cc2cccn2-c2nnc(N3CCCC3=O)s2)C(=O)Nc2cc(C)cc(C)c2)cc1,-11%,14%
N#Cc1c(-n2ncnc2-c2ccccc2Cl)sc2c1CCCCC2,-6%,-4%
O=C(O)CCCCCCCCCCO,0%,14%
O=Cc1cccc(OCc2ccc(Cl)cc2)c1,6%,27%
C=CCOc1ccc(NC(=O)c2ccc(Cl)cc2)cc1,-3%,171%[activator]
CN1CCc2nc(NC(=O)Cn3c(=O)oc4ccccc43)sc2C1,-11%,4%
CC(N)(CCc1ccccc1)C(=O)O (stereo not given),3%,-5%
Cc1cccc(NC(=O)CSc2cc(C)c3ccccc3n2)c1,?,?
COC(=O)c1c(NC(=O)c2ccccc2C(=O)O)sc2c1CCCC2,37%[activator],36%[activator]
CCOC(=O)NC(C(=O)O)C(C)C (stereo not given),8%,5%
CCc1ccc(NS(=O)(=O)c2ccc3[nH]cc(C(=O)NCCc4cccc(C)c4)c(=O)c3c2)cc1,0%,-7%
CCN1CCN(Cc2cc(=O)oc3cc(O)c(Cl)cc23)CC1,13%,0%
Cc1ccc(C)c(N2CCN(C(=O)c3cnn(C(C)(C)C)c3C3CCN(C(=O)OC(C)(C)C)CC3)CC2)c1,1%,-2%
CCCCCCCc1ccc(-c2ccc(O)c(F)c2)nc1,-9%,97%[activator]
Cc1cccc(Cn2cc(COC(=O)NCC(C)C)nn2)c1,12%,-5%
COc1ccc(C2=NS(=O)(=O)N(C)C(C(=O)Nc3cc(C)ccc3O)=C2)cc1OC,6%,-12%
CCOC(=O)C1=C(CS(=O)(=O)c2ccc(Br)cc2)NC(=O)NC1c1ccccc1 (stereo not given),-4%,?
CCn1c(SCC(=O)Nc2ccc3c(c2)OCO3)nc2cc(C)[nH]c2c1=O,60%[activator],0%
Cn1cnc2c1c(=O)n(Cc1ccccc1C#N)c(=O)n2C,-2%,5%
Cc1ccsc1C(=O)OCC(=O)NC(=O)NC1CCCCC1,-3%,48%[activator]
O=C(c1ccsc1)N(CC1CCOC1)C1CC1 (stereo not given),-13%,-2%
COc1ccc(CCNC(=O)CCCCn2c(=O)c3ccccc3n(Cc3ccccc3Cl)c2=O)cc1OC,-10%,0%
Cc1ccc(Cn2cccc(C(=O)Nc3ccc4c(c3)OCCO4)c2=O)cc1,?,36%[activator]
N#Cc1c(N)nc2c(c1-c1ccc(Cl)cc1)CCCC2,2%,1%
Cc1nn(C)c2sc(C(=O)NCc3ccc(C(=O)O)cc3)cc12,-11%,0%
O=C(O)/C=C/c1ccc(Cl)c(Cl)c1,3%,13%
COc1ccc(OC)c(CCNC(=O)c2c(C)oc3ncn(C)c(=O)c23)c1,4%,-4%
O=C(CSc1ccc(Cl)cc1)OCC(=O)c1ccc2c(c1)OCCO2,6%,0%
Cc1cccc(S(=O)Cc2ccc(C(=O)NC3CCCCCC3)o2)c1 (stereo not given),-4%,-20%
COC(=O)c1c(NC(=O)c2cc(=O)c3c(C)cc(C)cc3o2)sc2c1CCCC2,1%,-14%
Clc1ccc(-c2ccc(CNc3ncn[nH]3)o2)c(Cl)c1,4%,0%
O=C(CN1CCCc2c(F)cc(F)cc21)Nc1cccc2nsnc12,-19%,-21%
COc1cc(-c2nc(Cn3nnc(C(=O)Nc4cccc(Cl)c4)c3C)c(C)o2)cc(OC)c1OC,-7%,-13%
CSc1ccc(C2c3c(oc4ccc(F)cc4c3=O)C(=O)N2c2ccc(C)cn2)cc1 (stereo not given),41%[activator],9%
Cc1cnc2c(S(=O)(=O)N(C)CC(=O)Nc3cccc(C)c3C)cccc2c1,85%[activator],46%[activator]
CC(CNC(=O)COCc1nnc(C(=O)Nc2cccc(Cl)c2)s1)c1ccccc1 (stereo not given),7%,11%
Cc1cccc(NC(=O)COc2ncnc3ccc(Br)cc23)c1,-4%,-5%
CC1CCN(C(=O)Cn2c(=O)n(CC3CCC(C(=O)NC(C)C)CC3)c(=O)c3sccc32)CC1 (stereo not given),-9%,-7%
COCc1nn2c(c1-c1ccccc1)NC(=O)CC2C(=O)Nc1ccc(OC)c(Cl)c1 (stereo not given),-5%,7%
CC1=C(C(=O)OCc2ccc(C)cc2)C(c2cccc(F)c2F)CC(=O)N1 (stereo not given),?,?
CN(Cc1nnc(-c2ccc(Br)s2)o1)C1CCCC1,3%,126%[activator]
Cc1cn2c(=O)cc(COC(=O)c3cccc(NC(=O)COc4ccccc4C)c3)nc2s1,-4%,5%
COc1ccccc1NC(=O)Cc1nn(C)c(=O)c2ccccc12,10µM*,10µM*
Cc1cc(NS(=O)(=O)c2ccc3oc(=O)c4ncn(C)c4c3c2)ccc1Br,-11%,-14%
O=C(c1cc(-c2ccccc2)n[nH]1)N1CCN(c2ncccn2)CC1,19%,35%[activator]
CN(Cc1ccco1)C(=O)c1cccc(S(=O)(=O)N2CCCCC2)c1,19%,8%
NCCSC12CC3CC(CC(C3)C1)C2,-4%,3%
COC(=O)c1sccc1S(=O)(=O)N(CC(=O)Nc1c(C)cccc1C)c1ccc(C)c(C)c1,177%[activator],-21%
# New compounds follow:
SMILES,2A Renilla,2A firefly
Cc1ccc(NC(=O)CSc2nc3ccccc3nc2Cc2ccccc2F)cc1F,-10%,-7%
Cc1cc(=O)n2nc(N(C)Cc3ccc4c(c3)OCO4)sc2n1,-7%,15%
CCOc1ccc(C(=O)CC2(O)C(=O)Nc3ccc(C)cc32)cc1 (stereo not given),44%[activator],16%
CCCCOc1ccc(C(=O)Nc2cccc3cccnc23)cc1,-14%,-3%
FC(F)(F)c1cnc(N2CCc3sccc3C2)c(Cl)c1,-4%,0%
Cc1ccc(OCC(=O)Nc2nnc(SCc3cc(=O)n4cc(C)ccc4n3)s2)cc1,-8%,-7%
CCOC(=O)C1=C(N)Oc2cc(O)ccc2C1c1ccccc1Cl (stereo not given),26%,24%
CC(C)N1CCN(Cc2ccco2)CC1,16%,18%
CCOc1ccc2oc(=O)cc(CN3CCN(c4cc(C)ccc4C)CC3)c2c1,-6%,-12%
CSCc1cccc(C(=O)O)c1,-4%,22%
O=C(CCc1ncc(-c2ccccc2)o1)Nc1ccc(Cl)cc1F,-8%,16%
COc1cc(/C=C(\C#N)C(=O)Nc2ccc(C)cc2)ccc1OCc1cc(=O)n2nc(C)sc2n1,-14%,-20%
CCOC(=O)c1nc2ccccc2nc1N1CCN(c2ccccc2F)CC1,2%,6%
O=S(=O)(c1cc(Br)c(Br)s1)N1CCN(c2ccccc2)CC1,-10%,-8%
COc1ccccc1CNC(=O)COC(=O)CCC(=O)c1cccs1,3%,3%
CCOC(=O)c1[nH]c(C)c(C(=O)Nc2ccc(C)c(F)c2)c1C,18%,40%[activator]
CCCn1c2ccccc2c2cnn(CC(=O)NCCc3cc(OC)ccc3OC)c(=O)c21,7%,-7%
CN(C)CCNc1oc(-c2ccccc2F)nc1C#N,2%,9%
CCSc1ccc(N)cc1,34%,77%
CCOC(=O)NC(C(=O)NCc1ccc(C(N)=O)cc1)C(C)C (stereo not given),-8%,12%
Cc1ccccc1CN1c2ccccc2-c2nc(SCC(=O)NCc3ccccc3)ncc2S1(=O)=O,-22%,-4%
COc1cc(/C=N/O)cc(Br)c1O,22%,0%

# No enrichment for hits; any-hit rate near 0.53%.
